# AID504770 – E. coli YBA685 growth inhibition, screen for V. cholerae RctB inhibitors; E. coli YBA685 rctB-dependent plasmid, OD600 growth, 3 h; stronger effect = lower value; z-score (no concentration beside the values); actives 0.27% (n = 130,000); AID 504770;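 active = z-score under -2 on both plates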;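 note: wells of about 30 µL received 100 nL stock; score is relative to mean and SD of the test wells; the first replicate is given; strong numbers were not always called active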
# CapD inh – inhibitors of Bacillus anthracis CapD enzyme. actives 0.23% (n = 140,000). AID 492967. purified CapD enzyme, fluorescence intensity read-out; stronger effect = lower value; some hits fall short of the stated cut. z-score (no concentration beside the values);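 active = z-score under -4 in either of two replicates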;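 note: stock transfer was 100 nL into about 40 µL; score is relative to mean and spread of the plate; one replicate is shown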
# * marks the source's active call; other numbers are inactive results; · = no result given; & = joins results of further samples.
Compound	AID504770	CapD inh
O=C(NCc1ccncc1)c1cccc(S(=O)(=O)N2CCc3ccccc32)c1	-2.4	·
O=C1CSC(=S)N1/N=C/c1cc(Br)cc(Br)c1O	-0.4	12
Cc1cc(C2(O)CSc3nc4cc(C(F)(F)F)ccc4n32)ccc1Cl (stereo not given)	-0.4	-0.5
CC1SCC(=O)N(CC(=O)NCc2ccccc2)C1=O (stereo not given)	-0.75	-0.43
c1ccc(Nc2ccc(N3CCCC3)nn2)cc1	0.7	0.23
O=C(Cc1ccccc1)Nc1ccccc1C(=O)O	0.75	0.8
CCN(Cc1ccccc1)C(=O)C(C)Oc1ccccc1 (stereo not given)	0.2	-0.08
O=C(NNC(=O)c1csc(-c2ccccc2)n1)OCCc1ccccc1F	·	-0.93
Cc1nc2ccccc2c(=O)n1-c1ccc(OC(F)F)cc1	-0.75	·
CC(C)(C)c1ccc(OCc2ncc(S(=O)(=O)c3ccccc3)c(N)n2)cc1	1.1	10
CC1CCCC(NS(=O)(=O)c2cccc(C(=O)O)c2)C1C (stereo not given)	-0.4	·
CCC(C)NC(=O)c1sc2ncnc(N3CCN(c4ccccn4)CC3)c2c1C (stereo not given)	·	-1.1
Cc1ccsc1-c1nc(CSCC(=O)N2CCN(c3ccccc3)CC2)c(C)o1	0.65	-0.15
NCCc1ccco1	-0.1	·
Cn1c2ccccc2c2nnc(SCC(N)=O)nc21	-0.85	·
CCN(CC)Cc1oc(-c2ccccc2)cc1C(=O)O	-0.3	·
O=[N+]([O-])c1ccc(CO/N=C/c2c(-c3ccccc3)nc3sccn23)cc1	·	-0.59
CCOc1cc(C2N3CCc4ccccc4C3CN2S(=O)(=O)c2ccc(C)cc2)ccc1OC (stereo not given)	-0.05	0.73
Cc1nc(-c2cc(C#N)c(Oc3ccc(C(F)(F)F)cc3)nc2C)cs1	1.1	-0.61
c1ccc(C2CNCCO2)cc1 (stereo not given)	0.05	-0.025
O=C(Cc1ccccc1[N+](=O)[O-])N1CCCc2ccccc21	·	-0.36
CC(C)(C)c1ccc(C(=O)On2c(-c3ccccc3F)nc3ccccc3c2=O)cc1	·	-0.015
COc1ccc(C(=O)c2oc3ccccc3c2NC(C)=O)cc1	2.8	2.5
CCc1cccc(N2C(=O)C(Cc3ccccc3)N=C2N2CCCCC2)c1 (stereo not given)	0.5	6.5
Cc1cc(C)cc(C(=O)N2CCCCCC2)c1	-0.3	0.67
CC(C)(C)OC(=O)/N=C(\N)N(CCCC(NC(=O)OC(C)(C)C)C(=O)NCc1cccs1)C(=O)OC(C)(C)C (stereo not given)	·	-0.3
O=C(CSc1nnc(SCC(=O)NCC2CCCO2)s1)NCC1CCCO1 (stereo not given)	-1.1	·
Fc1ccc(-c2ccc(C=Nc3ccc(F)c(F)c3)[nH]2)cc1	-0.2	2.7
Cn1c(C2Sc3ccccc3NC2=O)ccc1C1Sc2ccccc2NC1=O (stereo not given)	0.6	·
Clc1ccc(CCNc2ncnc3c2nc2n3CCCC2)cc1	0.15	0.7

# In a second layout: results already given
# Value order: AID504770, CapD inh
O=C(NNC(=O)c1csc(-c2ccccc2)n1)OCCc1ccccc1F
→ ·, -0.93
Cc1nc2ccccc2c(=O)n1-c1ccc(OC(F)F)cc1
→ -0.75, ·

# Further compounds.
Compound	AID504770	CapD inh
O=C(OCCc1ccc([N+](=O)[O-])cc1)N1CCC2(CC1)C(=O)NCN2c1ccccc1	·	0.025
CC(C)N1C(=O)/C(=C2/C(=O)N(CC(=O)O)c3ccc(Br)cc32)SC1=S	0.9	-0.2
CCCCn1c(CSc2ccccn2)cn(-c2nnc(C(C)(C)C)s2)c1=O	-0.25	1
CCn1c(N)c(C(=O)COC(=O)CC2Sc3ccccc3NC2=O)c(=O)[nH]c1=O (stereo not given)	-1	·
CC12C(=O)N(CCC(=O)O)C(=O)C1C1C=CC2C1 (stereo not given)	1.6	0.61
COc1ccc2[nH]c(C(=O)N(C)c3ccccc3Cl)cc2c1	-0.35	9.6
O=C(Nc1cccc(Cl)c1)c1cc(S(=O)(=O)N2CCCCCC2)ccc1F	0.25	0.41
Cc1ccc(S(=O)(=O)n2nc(-n3c(C)ccc3C)c3c(F)cccc32)c2ccccc12	-0.05	-0.9
O=C1NC(c2ccccc2)=N/C1=C/c1cccs1	0.35	-0.68
CN(C)/C=N/c1ncccn1	·	0.1
O=C(CN1C(=O)C2C3C=CC(C3)C2C1=O)Nc1ccc2ncccc2c1 (stereo not given)	-1.1	0.12
Cc1cc(C)cc(OCCSc2nc3ccccc3n2CCC#N)c1	-1.3	·
CC(C)CC(NS(=O)(=O)c1ccc2c(c1)CN(C(=O)C(F)(F)F)CC2)C(=O)NNC(=O)OCc1ccccc1 (stereo not given)	·	0.32
O=C(C(NS(=O)(=O)c1ccccc1)c1ccccc1)N1CCCC1 (stereo not given)	0.75	-0.065
COc1cccc(C(=O)NC(Cc2ccccc2)C(=O)O)c1 (stereo not given)	-0.15	0.03
CN(C)c1n[nH]c(=O)[nH]c1=O	-0.7	-0.23
CCc1ccc(C2C(C#N)=C(N)Oc3cc(N)ccc32)cc1 (stereo not given)	0.15	·
O=C(Nc1cccnc1Oc1ccc(Cl)cc1)c1ccccc1Cl	-0.2	0.38
Cc1noc(C)c1C(=O)COC(=O)c1ccc(S(=O)(=O)N2CC(C)OC(C)C2)cc1 (stereo not given)	0.2	·
CN1CCN(NC(=O)CCN2C(=O)/C(=C\c3ccco3)SC2=S)CC1	-0.5	·
Cc1nc2c(c3c1[nH]c1ccccc13)C(=O)CCC2	·	10
Cc1cc(Br)c(S(=O)(=O)C(C)(C)C)c(Br)c1	1.2	0.62
CN1C(=O)C(Cc2ccccc2)(Cc2ccccc2)c2ccccc21	1.1	-0.06
CCCOc1ccc(/C=N/NC(=O)c2cc(C3CC3)nc3ccccc23)cc1	·	1.7
COc1ccccc1Nc1nc(C2(C)CCC(=O)O2)cs1 (stereo not given)	-0.1	-0.83
CCOc1nc(Nc2ccc(I)cc2C)nc(NC2CCCCC2)n1	0	-0.6
COc1ccc(CCN(Cc2cc3cc(C)ccc3n3nnnc23)C(=O)N(C)C)cc1OC	-0.45	·
CCCN(CCC)S(=O)(=O)c1ccc(C(=O)NNC(=O)CCc2cc(OC)c(OC)c(OC)c2)cc1	·	-0.82
Cc1ccc(C)c(NC(=O)CSc2nnc(NC(=O)c3ccccc3F)s2)c1	-0.9	-0.21
CCC(C)C1C(C#N)=C(N)OC2=C1C(=O)CC(C)(C)C2 (stereo not given)	1.4	-0.46

# Additional compounds follow:
Compound	AID504770	CapD inh
Cc1ccc(Nc2cc(N3CCCCC3)c3nonc3c2[N+](=O)[O-])c(C)c1	·	-0.23
CCOc1cc(C2C(C#N)=C(N)Oc3n[nH]c(-c4ccc5c(c4)OCO5)c32)ccc1OC(=O)c1ccco1 (stereo not given)	·	0.015
Cc1cccc(N2N=C(C(=O)N3CCc4ccccc4C3)CCC2=O)c1	-0.2	·
CN1CCN(Cc2c(O)ccc3c(=O)c(-c4ccc(Cl)cc4Cl)c(C(F)(F)F)oc23)CC1	-0.25	-0.01
O=C(CCCn1c(=O)c2cccn2c2ccccc21)NCc1cccnc1	-0.45	-0.34
COC(=O)CC(=O)CN1C(=O)c2ccccc2C1=O	-0.55	30
CCOC(=O)c1nc[nH]c1C	2	-1
S=C(NCc1ccco1)NC1CCCc2ccccc21 (stereo not given)	0.25	·
Cc1cc(N2CC(C)CC(C)C2)nc2cc(Cl)ccc12 (stereo not given)	0.9	9.8
CCCCC(C(=O)OCC(C)C)N1C(=O)C2C3c4ccccc4C(c4ccccc43)C2C1=O (stereo not given)	·	0.68
CCN(CC(=O)Nc1ccc2c(c1)OCCO2)C(=O)/C=C/c1ccco1	-0.75	·
Cc1cccc(-n2ncc(C(=O)N3CCCC3)c2-n2cccc2)c1	-0.9	-1.2
COc1ccc(C(=O)Nc2c(O)c3ccccc3oc2=O)cc1OC	0.1	0.81
O=C(O)COc1ccc(/C=C2\SC(=O)N(Cc3ccc(F)cc3)C2=O)cc1	-0.45	6.2
O=C(CSc1nc2ccccc2n1-c1ccccc1)N1CCCC1	0	-0.63
COc1ccc(/C(C)=N/N=C(N)N)c(O)c1	0.45	·
Cc1cccc(NC(=O)CSC2=C(C#N)C(c3cccs3)C3=C(CCCC3=O)N2)c1 (stereo not given)	·	8.4
Cc1cccc([C@@H]2[C@@H](C(=O)C(C)(C)C)N3c4ccccc4C=C[C@@H]3C2(C#N)C#N)c1	·	-0.42
O=C1c2ccccc2C(=O)N1CNc1ccc(Cl)cc1	·	0.22
O=C(O)Cn1cccn1	-0.4	·
Cc1ccccc1Nc1nc2nonc2nc1Nc1cccc(C)c1C	·	0.35
CCCCN(C(=O)c1sc2nc3n(c(=O)c2c1C)CCCCC3)C1CCN(C(C)=O)CC1	-0.9	-0.27
CSC(=S)N(C)/N=C/c1cc(Cl)cc(Cl)c1O	1.6	-0.085
NC(=S)N1C(c2ccccc2)CCN1c1ccccc1 (stereo not given)	0.8	0.49
Cc1ccc(Sc2nc(C)c([N+](=O)[O-])c(C)c2C#N)cc1	·	0.19
O=C(NCCc1c[nH]c2ccc(Cl)cc12)c1cc(=O)n(-c2ccccc2)[nH]1	·	1.4
C=C1SC(=Nc2ccccc2Cl)N(C(=O)c2sc3ccccc3c2Cl)C12CCCCC2	·	0.39
COc1ccccc1NC(=O)C1CC(=O)N(Cc2ccc3c(c2)OCO3)C(=Nc2ccccc2)S1 (stereo not given)	·	-0.47
O=C(O)C1C2C=CC(C2)C1C(=O)Nc1cc(Cl)cc(Cl)c1 (stereo not given)	1.1	-0.66
N#CC1=C(N)N(c2ccc(Br)cn2)C2=C(C(=O)CCC2)C1c1ccc2c(c1)OCO2 (stereo not given)	·	-0.48

# 2 records picked at random from those above, as already listed:
Compound	AID504770	CapD inh
CCc1cccc(N2C(=O)C(Cc3ccccc3)N=C2N2CCCCC2)c1 (stereo not given)	0.5	6.5
Cn1c2ccccc2c2nnc(SCC(N)=O)nc21	-0.85	·

# One compound at a time, from the list above. Values in the order: AID504770, CapD inh
# Cc1cccc([C@@H]2[C@@H](C(=O)C(C)(C)C)N3c4ccccc4C=C[C@@H]3C2(C#N)C#N)c1 reads ·, -0.42
# O=C(O)C1C2C=CC(C2)C1C(=O)Nc1cc(Cl)cc(Cl)c1 (stereo not given) reads 1.1, -0.66
# Cc1ccc(Sc2nc(C)c([N+](=O)[O-])c(C)c2C#N)cc1 reads ·, 0.19
# CCOC(=O)c1nc[nH]c1C reads 2, -1
# Cc1cccc(N2N=C(C(=O)N3CCc4ccccc4C3)CCC2=O)c1 reads -0.2, ·

# More entries follow:
Compound	AID504770	CapD inh
N#Cc1cnc(Oc2ccc(Cl)cc2)nc1N	·	0.17
C=CCN1CC(c2nc3ccccc3n2Cc2ccc(F)cc2)CC1=O (stereo not given)	0.5	1.3
O=C(CSC(F)(F)F)Nc1ccc(I)cc1	-0.15	-0.01
S=C(NCc1cccnc1)c1ccccc1	-1.8	-0.7
CCCCc1ccc(Nc2ncnc3c2cnn3-c2ccccc2)cc1	1.7	-0.07
CCN1C(=O)C(C(c2ccncc2)c2c(O)n(CC)c(=S)n(CC)c2=O)C(=O)N(CC)C1=S (stereo not given)	0.2	0.55
CSc1ncc(C)cc1C#N	-0.35	13
CNCCc1ccccn1	·	0.035&0.47
Cc1cccc(NC(=O)CSc2cn(CCNC(=O)c3ccc(F)cc3)c3ccccc23)c1C	2.8	-1.4
O=S(=O)(NCc1ccc2c(c1)OCO2)c1ccc(I)cc1	0.9	-0.03
Cc1ccc(/C=N/N2CCOCC2)s1	0.9	·
Cc1cc(C)nc(NS(=O)(=O)c2ccc(NC(=O)CCc3ccccc3)cc2)n1	·	-0.065
CC(C(=O)NCc1ccc(F)cc1)N1Cc2ccccc2C1=O (stereo not given)	-0.45	-0.44
COc1cccc(N/C(SCc2ccccc2Cl)=C(/C#N)C(N)=O)c1	·	0.23
Cc1nn2c(CN(C(=O)CN3CCOCC3)c3ccccc3)nnc2c2ccccc12	-1.5	0.52
O=C(Nc1ccc(Cl)cc1)OC1CS(=O)(=O)CC1N1CCCC1 (stereo not given)	0.7	-0.24
CSc1nc(-c2ccccc2)c(C#N)c(=O)[nH]1	-0.15	0.32
Nc1c2c(=O)[nH]c(-c3ccccc3)nc2nn1-c1ccccc1	0.4	0.96
CC1CCCN(C(=O)COC(=O)c2ccc(-c3cccc(C(F)(F)F)c3)o2)C1 (stereo not given)	0.75	·
CCOc1ccc(NC(c2ccccn2)c2oc(CO)cc(=O)c2O)cc1 (stereo not given)	-0.6	·
CCC(CO)NC(=O)c1nc(-c2ccccc2)oc1C(F)(F)F (stereo not given)	·	-0.49
O=C(O)/C=C/c1cc(C(F)(F)F)ccc1Cl	0.85	·
Cc1ccc(S(=O)(=O)N(CC(=O)Nc2ccc3c(c2)OCCO3)C2CCCCC2)cc1	0	-0.88
COc1ccc2ccccc2c1-c1nnc2ccc3ccccc3n12	·	0.36
O=S1(=O)CCN(N2CCCCC2)CC1	1.1	-0.12
COc1cc(-c2nc3ccccc3c(=O)n2NC(=O)/C=C/c2ccc(Br)cc2)cc(OC)c1OC	·	-0.19
CCOC(=O)Cc1ccc(NC(=O)N2CCOc3ccccc32)cc1	-0.55	0.16
O=C(NC1CCCC1)c1ccc(CS(=O)(=O)c2cccc(C(F)(F)F)c2)o1	-0.9	0.28
CCN(C(=O)c1ccc(S(=O)(=O)N2CCC(C)CC2)cc1)C1CCS(=O)(=O)C1 (stereo not given)	-0.2	·

# High-throughput results from PubChem.
